# Cruzain inh Det: blocks cruzain activity in presence of Triton detergent; P25779; purified cruzain, Z-FR-AMC fluorescence, 0.01% Triton; Potency, µM, for the others: max response, negative = inhibition, actives largely listed as inhibitors; 200,000 compounds, 0.43% hits; AID 1478; active = well fitted curve in the direction sought with a large enough effect; inconclusive = small, poorly fitted or top-dose-only effect, or another doubt; inactive = no such curve, though single readings can be large; an effect the other way counts as inactive or inconclusive;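 also: plate controls were neutral wells for no effect and buffer without enzyme for full effect; nearly all actives have a fitted effect of over 40% in size; top concentration of the series not given in the record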
# Target sequence (P25779 123-467 limits assumed): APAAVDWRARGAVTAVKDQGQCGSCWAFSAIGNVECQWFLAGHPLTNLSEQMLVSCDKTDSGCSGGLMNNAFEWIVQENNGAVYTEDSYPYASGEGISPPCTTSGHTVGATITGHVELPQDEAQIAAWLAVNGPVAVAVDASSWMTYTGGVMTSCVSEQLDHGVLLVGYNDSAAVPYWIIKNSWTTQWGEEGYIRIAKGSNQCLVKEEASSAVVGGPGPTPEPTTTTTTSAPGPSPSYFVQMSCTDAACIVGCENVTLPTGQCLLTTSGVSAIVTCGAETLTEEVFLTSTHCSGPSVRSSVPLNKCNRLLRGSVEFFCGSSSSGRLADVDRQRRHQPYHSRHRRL
#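 Read-out: AMC fluorescence (360 nm excitation, 450 nm emission), four reads over 2 min, first-to-third difference used. Conditions: cruzain 1.5 nM, Z-FR-AMC 2 uM, pH 5.5 acetate, 5 mM DTT, 0.01% Triton X-100.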
# 2A StopGo: lowers the luciferase signal of an FMDV 2A StopGo reporter; human cells with a luciferase reporter of 2A StopGo recoding; control for the full effect not named in the record; Potency, µM (doses to about 57.9 µM), without a hit: at the highest dose signal change, negative = less light; 410,000 compounds, 1.2% hits; AID 1159524; active = well fitted falling curve with a large enough effect; inconclusive = small, poorly fitted or top-dose-only effect; inactive = no such curve, though single readings can be large or run the other way; tested in HEK293T cells; also: % is scaled to controls: 0 for no effect and ±100 for the full control effect; nearly all actives have a fitted effect of over 45% in size; luciferase light after 4 h
# NS1 inh: influenza NS1 inhibition. Potency, µM (doses to about 46.1 µM), without a hit: at the top dose activity, positive = more growth. S. cerevisiae slowed by influenza A NS1, growth recovery by OD600. AID 2326. 270,000 compounds, 0.4% hits; also: actives are rising curves; nearly all actives have a fitted effect of over 50% in size
#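 Compounds were scored for reversing the slow growth caused by influenza A NS1 in S. cerevisiae, measured by optical density at 600 nm. Assay medium contained 2% galactose at pH 6.0; NS1-free yeast of the same strain were the positive control.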
# Cruzain inh noDet: cruzain (T. cruzi) inhibition without detergent; P25779; purified cruzain, Z-FR-AMC fluorescence, no detergent; Potency, µM, inactives show max response, negative = inhibition, hits mostly inhibitors; 200,000 compounds, 2.3% hits; AID 1476; active = well fitted curve in the direction sought with a large enough effect; inconclusive = small, poorly fitted or top-dose-only effect, or another doubt; inactive = no such curve, though single readings can be large; an effect the other way counts as inactive or inconclusive;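 also: plate controls were enzyme without inhibitor for no effect and buffer without enzyme for full effect; nearly all actives have a fitted effect of over 40% in size; top concentration of the series not given in the record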
#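 Detergent-free condition (0.00005% Triton X-100) in acetate buffer pH 5.5 with DTT. 1.5 nM enzyme and compound were pre-mixed 15 min, then 2 uM Z-FR-AMC substrate added; reaction progress from fluorescence change between first and third reads (60 s).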
# Marburg entry inh: blocks Marburg virus binding to or entry into cells; Marburg virus pseudotyped entry inhibition, cell reporter; control for the full effect not named in the record; about a third of the inactives were read at about 46 µM; Potency, µM (doses to about 37.8 µM), for inactives: at the highest dose activity change, negative = inhibition, hits mostly inhibitors; 300,000 compounds, 1.8% hits; AID 540276; active = well fitted inhibition curve with a large enough effect; inconclusive = small, poorly fitted or top-dose-only effect, or effect the other way; inactive = flat fitted curve, though single readings scatter; tested in HEK293 cells; about a fifth of its hits are not listed in these tables; also: % is scaled to controls: 0 for no effect and ±100 for the full control effect; luciferase read-out
# LASV entry inh: Lassa virus entry inhibition. Lassa virus pseudotype entry inhibition, cell reporter; control for the full effect not named in the record. 300,000 compounds, 1.2% hits. Potency, µM (series often up to 37.9 µM), without a hit: at the highest dose activity change, negative = inhibition, actives largely listed as inhibitors; active means well fitted inhibition curve with a large enough effect; inconclusive means small, poorly fitted or top-dose-only effect, or effect the other way; inactive means flat fitted curve, though single readings scatter; tested in HEK293 cells; also: % is scaled to controls: 0 for no effect and ±100 for the full control effect; nearly all actives have a fitted effect of over 50% in size; luciferase read-out
# SARS PLpro yeast: blocks SARS-CoV papain-like protease in a yeast assay; S. cerevisiae expressing SARS-CoV PLpro, growth rescue; control for the full effect not named in the record; Potency, µM (top dose mostly 32.9 µM), for the others: at the top dose activity, positive = growth rescue; 330,000 compounds, 0.19% hits; also: 0% is about no effect; nearly all actives have a fitted effect of over 55% in size; growth read by luminescence after 48 h
# RE007 growth inh: less growth of the S. pombe RE007 Vpr strain; 360,000 compounds, 0.21% hits; S. pombe RE007 Vpr strain, BacTiter-Glo ATP luminescence, 24 h; control for the full effect not named in the record; AID 651644; Potency, µM (doses to about 92.2 µM), for inactives: at the top dose activity change, negative = less growth; active = well fitted falling curve with a large enough effect; inconclusive = small, poorly fitted or top-dose-only effect; inactive = no such curve, though single readings can be large or run the other way;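 also: % is scaled to controls: 0 for no effect and ±100 for the full control effect; nearly all actives have a fitted effect of over 50% in size; the assay follows cell death caused by Vpr and the record does not say whether a fall means rescue or toxicity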
#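 Fission yeast RE007 carrying one integrated HIV-1 vpr copy, seeded at OD 0.01 in PMG+AL medium with 23 nL pinned compound. Grown 24 h at 30 degrees; viability read by BacTiter-Glo luminescence after 5 min.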
# * marks the source's active call; other numbers are inactive results; ? = inconclusive; . = no result given; & = joins results of further samples; [ ] = another dose, or the depositor's remark. Unless noted, calls follow the shape of the dose curve; as a rule, active means well fitted rising curve with a large enough effect; inconclusive means small, poorly fitted or top-dose-only effect; inactive means no such curve, though single readings can be large or run the other way. Potency is read from the fitted curve at half-maximal effect.
SMILES,Cruzain inh Det,2A StopGo,NS1 inh,Cruzain inh noDet,Marburg entry inh,LASV entry inh,SARS PLpro yeast,RE007 growth inh
CC(=O)Nc1ccc(S(=O)(=O)N2CCN(Cc3nc4sc(C)c(C)c4c(=O)[nH]3)CC2)cc1,.,2%,4%,.,.,.,-2%,-10%
C[C@H](NC(=O)c1ccccc1Cl)C(=O)OCC(=O)NNC(=O)c1cccs1,.,-6%,.,.,-16%,1%,3%,-1%
Cc1cccc(C(=O)Nc2nnc(COc3ccccc3)s2)c1,.,-6%,-3%,.,2%,-3%,-1%,-10%
CCOC(=O)C1=C(N)N2C(=O)C(C)SC2=C(C(=O)OCC)C1c1ccccc1 (stereo not given),-11%,-14%,-1%,-16%,9%,5%,5%,1%
O=C1NC(=O)C2(CCN(S(=O)(=O)c3ccccc3)CC2)C(=O)N1,.,0%,.,.,28%[46.1 µM],-12%[46.1 µM],.,27%
Cc1ccc2[nH]c(=O)c(CNC(C)(C)C)cc2c1,-0.2%,1%,5%,11%,0%,-3%,?,21%
O=C(NC(C(=O)N1CCCC1C(=O)O)=C1CCCCC1)c1ccccc1 (stereo not given),3.3%,5%,1%,2%,-2%,13%,16%,-5%
Cc1nn2c(NCCCN(C)C)c3c(nc2c1-c1ccccc1)CCC3,6.8%,-6%,-3%,6%,-23%,-15%,3%,-11%
Nc1nnc(CSCc2ccc(F)cc2)s1,2.8%,29%,12%,2%,1%&1%,1%,-4%,2%
O=C1c2ccccc2C(=O)c2c(/C=C/N3CCCCC3)ccnc21,.,-23%,.,.,?,?,.,?
Cc1ccc(N2C(=O)CC(N3CCc4ccccc43)C2=O)cc1Cl (stereo not given),.,5%,.,.,?,?,-2%,-10%
Cc1ccc(NC(=O)C2CCCN(c3ncccn3)C2)cc1C (stereo not given),.,58%[activator],-14%,.,?,19%[46.1 µM],-2%,4%
CC(=O)c1ccc(S(=O)(=O)N(C)CCCC(=O)N2CCN(c3ncccn3)CC2)cc1,.,-20%,.,.,8%,4%,-5%,15%
COc1ccc(C(=O)CC2(O)C(=O)Nc3c(C)cccc32)c(OC)c1OC (stereo not given),0.6%,-6%,.,0%,.,?,.,.
Cc1[nH]c2ccccc2c1CN1CCCCC1,.,-6%,.,.,-4%,11%,.,52%
CCCCN(C(=O)c1cccc2c(=O)c(C)c(-c3ccccc3)oc12)c1ccccc1,-6.8%,?,-40%,6%,?,12µM*,-39%,3%
CCN(Cc1cnn(C)c1)C(=O)c1cc(COc2cc(C)c(Cl)c(C)c2)on1,.,5%,12%,.,-8%[46.1 µM],-17%[46.1 µM],-5%,20%
CS(=O)(=O)N1CCN(c2ccccc2NC(=O)CSc2ccc(Cl)cc2)CC1,-1.7%,?,-25%,-12%,?,-20%,5%,24%
COc1ccc(/C=N\Nc2ccc([N+](=O)[O-])cc2)c(C(=O)O)c1OC,.,-10%,-45%,.,.,.,-2%,-5%
COc1ccccc1NCC(=O)NNC(C)C(=O)Nc1cccc(Cl)c1 (stereo not given),.,-6%,11%,.,.,.,-1%,0%
Cc1cc(C)cc(NC(=O)C2CCN(S(=O)(=O)c3ccc4c(c3)NC(=O)C(C)S4)CC2)c1 (stereo not given),.,?,11%,.,.,.,-3%,-3%
Cc1cccc(NC(=O)c2nc(-c3ccccc3)n(-c3ccccc3)n2)c1C,-3.8%,-28%,-59%,-4%,?,?,-24%,-1%
CC1(C)CC(=O)C(C(=O)/C=C/c2ccco2)C(=O)C1,.,5%,13%,.,-1%,-5%,1%,0%
O=C(Nc1ccc2c(c1)OCCO2)C1CC1c1ccccc1 (stereo not given),-3.2%,33%[activator],-8%,-19%,?,1%,0%,23%
Cc1cc2nc(-c3ccc[nH]c3=O)[nH]c2cc1C,.,-79%,-5%,.,.,.,-10%,7.1µM*
CCOC(=O)c1c(NC(=O)CSc2nc3ccccc3o2)sc(C)c1C,-1.3%,4%,2%,-24%,6%,?,4%,5%
CC(=O)Nc1ccc(S(=O)(=O)Nc2cccc(-c3nc4ccccc4o3)c2)cc1,-13%,-2%,19%,18%,?,?,13%,20%[3.69 µM]
Cc1ccc(-n2cc(C(=O)OCc3ccc(Cl)cc3)c3ccccc3c2=O)cc1,-0.8%,-21%,.,-7%,.,24%[46.1 µM],.,.
CC(=O)c1cccc(NC(=O)/C(=C\c2cccnc2)NC(=O)c2ccc(C)cc2)c1,.,-14%,-11%,.,12%[46.1 µM],23%,0%,4%
CCC(C)C(=O)Nc1nc(C)c(-c2csc(Nc3cc(Cl)ccc3OC)n2)s1 (stereo not given),1.4%,?,?,-16%,.,.,2%,3%
CC1CCCCN1S(=O)(=O)c1ccc2c(c1)CCN2C(=O)C1CC1 (stereo not given),.,-24%,-8%,.,.,.,5%,18%
O=C(CSc1nc2c([nH]c3ccccc32)c(=O)n1-c1ccccc1)Nc1ccc(Cl)c(Cl)c1,-0.9%,?,.,13µM*,.,-8%[46.1 µM],.,.
CCOc1cccc2sc(N(CCN(C)C)C(=O)c3ccc4c(c3)OCCO4)nc12,.,-4%,-12%,.,-7%,-26%,3%,-3%
COc1ccccc1/C=C/C(=O)OCC(=O)NNC(=O)c1ccccc1,-11%,-8%,-1%,-26%,6%,3%,8%,11%
O=C(O)c1ccccc1C(=O)Nc1c(-c2ccccc2)nc2ccccn12,.,0%,5%,.,.,.,0%,4%
CC(=O)Nc1nnc(SCC(=O)NCc2ccc3c(c2)OCO3)s1,.,-18%,9%,.,.,.,-2%,7%
Cc1cccc(NC(=O)c2ccc(C(=O)Nc3cccc(C)c3C)cc2)c1C,0.6%,0%,.,1%,.,22%[46.1 µM],.,.
CCOC(=O)c1oc2ccccc2c1NC(=O)C(C)(C)C,.,-10%,.,.,24%[46.1 µM],-2%[46.1 µM],2%,-6%
CCOC(=O)c1ccc(NC(=O)CN(Cc2ccc(C)cc2)S(=O)(=O)c2ccc(C)cc2)cc1,0.4%,-24%,.,-4%,.,?,.,.
Cn1c(=O)c2c(nc(Sc3ncnn3CC(=O)NC(C)(C)C)n2C)n(C)c1=O,.,-4%,1%,.,2%[46.1 µM],3%[46.1 µM],-1%,-7%
O=C(CNS(=O)(=O)c1ccccc1)N1CCc2ccccc2C1,.,29%,0%,.,13%,12%,.,-6%
Cn1cnnc1SCc1cccc(Br)c1,3.4%,0%,?,6%,3%,7%,6%,4%
Cc1ccc(S(=O)(=O)N2CCN(C(=O)C3COc4ccccc4O3)CC2)cc1C (stereo not given),0.4%,1%,-34%,13%,-9%,-20%[14.3 µM],-3%,19%
O=C(c1ccc(Br)o1)N1CCN(Cc2ccc3c(c2)OCO3)CC1,5.4%,-18%,-2%,12%,?,-14%,-1%,7%
CC(C)CN(Cc1c(O)ccc2c3c(c(=O)oc12)CCC3)CC(C)C,28µM*,.,-3%,-99%,0%,0%,4%,17%
Cc1cc(C)c2nc(Cl)c(CN(Cc3ccco3)C(=O)Nc3ccccc3C)cc2c1,-10%,.,?,8%,?,?,-17%,-4%
Cc1ccc(-c2csc3nc(CN(C)Cc4ccccc4)[nH]c(=O)c23)cc1,.,-25%,.,.,?,-23%[46.1 µM],-4%,-12%
COc1cc(NC(=O)C(Cc2ccccc2)NS(=O)(=O)c2cccc3nsnc23)cc(OC)c1 (stereo not given),-6.1%,2%,.,-3%,?,?,.,.
O=C(OCCNc1ncc(C(F)(F)F)cc1Cl)c1ccc(S(=O)(=O)N2CCOCC2)cc1,-5.0%,.,1%,11%,18%,-2%,2%,19%
CN(C(=O)c1ccc2c(c1)C(=O)N(CCC1=CCCCC1)C2=O)C1CCCCC1,-10%,-24%,6%,9%,1%,.,-7%,3%
Cc1ccc(CN2CCN(C3CCN(C(=O)c4ccccc4)CC3)C(=O)C2=O)cc1,2.2%,-18%,.,-3%,.,26%[46.1 µM],.,.
CCN(Cc1ccccc1)S(=O)(=O)c1ccc(F)c(C(=O)Nc2ccc(C(C)C)cc2)c1,3.0%,?,.,1%,.,2%[46.1 µM],.,.
CCc1cc(C(=O)c2ccc(OC)cc2)c(NC(=O)CN2CCCC2)s1,.,-12%,-1%,.,.,.,-2%,41%
CCCc1cc(=O)oc2cc(C)cc(OCC(=O)Nc3ccccn3)c12,.,-18%,6%,.,.,.,-7%,4%
O=C(O)Cn1cnc2c(=S)nc[nH]c21,.,-3%,-4%,.,-1%,.,0%,1%
O=C(Nc1ccc(C(=O)O)cc1)/C(=C\c1ccccc1)NC(=O)c1ccco1,.,-9%,0%,.,-5%[46.1 µM],1%,2%,3%
CCOc1ccccc1NC(=O)CN(c1cc(C)cc(C)c1)S(=O)(=O)c1c(C)noc1C,-1.4%,-18%,-14%,-8%,-4%,.,-6%,-10%
CCn1c(SCc2ccc(Cl)cc2)nc2nc3c(cc2c1=O)CCCC3,-1.8%,?,-2%,-1%,5%,?,-54%,-3%
CC(=O)OC[C@H]1O[C@@H](n2ccc(=O)[nH]c2=S)C(OC(C)=O)C1OC(C)=O (stereo not given in full),2.8%,-5%,1%,-8%,2%,0%,5%,-2%
O=C1C2CC=CCC2C(=O)N1c1nccs1 (stereo not given),.,-4%,.,.,1%,2%[46.1 µM],.,-8%
Cc1nc(NCc2ccc(S(N)(=O)=O)cc2)c2c(C)c(C)sc2n1,.,?,?,.,-26%[46.1 µM],7%,1%,-6%
Cc1ccc(S(=O)(=O)N/N=C\c2ccc([N+](=O)[O-])o2)cc1C,.,2%,-10%,.,8%[46.1 µM],?,-2%,-12%

# Screening results: PubChem BioAssay, National Center for Advancing Translational Sciences (NCATS)
